Assay outcomes (PubChem)
HSD17B inh – inhibitors of human HSD17B10 dehydrogenase. Q99714. recombinant HSD17B10, NADH fluorescence kinetic; many of its hits are not listed in these tables. Potency, µM (top dose mostly 57.1 µM), without a hit: top-dose activity change, negative = inhibition, actives largely listed as inhibitors. 7.6% of 75,000 active. AID 893; active = well fitted inhibition curve with a large enough effect; inconclusive = small, poorly fitted or top-dose-only effect; inactive = no such curve, though single readings can be large or run the other way;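 also: the protocol describes HADH2 (HSD17B10) and not the HSD17B4 of the title; nearly all actives have a fitted effect of over 70% in size; most hits overshoot -100% by far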
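Enzyme plus compound, 15 min room temperature; substrate mix added (NAD+ 1 mM, beta-hydroxybutyryl-CoA 90 uM final); plates read kinetically for NADH fluorescence. HADH2 was His-tagged, E. coli-derived, 20 nM.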
* = called active by the depositor; ? = inconclusive; [ ] = dose if it differs, or a comment. % is scaled to controls: 0 for no effect and ±100 for the full control effect; potency is read from the fitted curve at half-maximal effect. Only part of the results is shown. The share of hits here may be higher or lower than overall.

SMILES	HSD17B inh
CCN1C(=O)CC(N2CCN(C(c3ccccc3)c3ccccc3)CC2)C1=O (stereo not drawn)	8%
O=C(Cc1cccs1)N1CCCC(c2nc3c(nnn3Cc3ccc(F)cc3)c(=O)[nH]2)C1 (stereo not drawn)	-23%
Cc1ccc2[nH]c(=O)c(CN(Cc3cccnc3)Cc3nnnn3CCN3CCOCC3)cc2c1	?
COC(=O)c1ccc(CSc2nc3ccccc3c(=O)n2-c2cccc(OC)c2)o1	?
CCCCOC(=O)Cn1c(=O)c2c(nc(Br)n2Cc2ccccc2)n(C)c1=O	1%
N#CC1=C(N)Oc2c(sc3ccccc23)C1c1ccco1 (stereo not drawn)	?
O=C(Oc1ccc2c(c1)CN(Cc1ccccc1)CO2)c1ccccc1	0%[11.4 µM]
CCOC(=O)c1c(=O)n(O)c2ccc(C)cc2[n+]1[O-]	-6%
O=C(CCCc1c[nH]c2ccccc12)N1CCN(c2ccc(N3CCOCC3)nn2)CC1	25µM*
O=C(c1cccc(C(=O)N2CCc3ccccc32)n1)N1CCc2ccccc21	1%
O=C(O)CCCNC(=O)c1cncc(Br)c1	6%
COc1ccccc1N1CCN(C(=O)C(NS(=O)(=O)c2cccs2)c2ccccc2)CC1 (stereo not drawn)	0%
Cc1csc(NC(=O)CCC(=O)N(CC(=O)NC2CCCC2)Cc2ccco2)n1	-1%
COc1ccc(-c2ccc(SCC(=O)NCc3ccco3)nn2)cc1OC	-13%
CC(=O)Nc1cccc(NC(=O)c2oc3ccccc3c2C)c1	4%
COc1ccc(C(=O)Nc2ccccc2-c2nnn(CC(=O)NCc3ccco3)n2)cc1	32µM*
COc1cc(NC(=O)C(C)C)ccc1NC(=O)c1ccco1	-2%
COc1ccccc1N1C(=O)CC(Sc2nc(C)cc(C)n2)C1=O (stereo not drawn)	-12%
CCN1CCN(Cc2ccc(NC(=O)Nc3ccccc3Cl)cc2)CC1	7%
O=S(=O)(NCC1OCCc2ccccc21)c1ccc(S(=O)(=O)N2CCOCC2)cc1 (stereo not drawn)	3%
CCn1c(C(=O)Nc2ccsc2C(=O)OC)cc2sc(Cl)cc21	32µM*
O=C(O)C1CCCCC1C(=O)Nc1ccc(Cl)cc1 (stereo not drawn)	-3%
COc1cccc(C(=O)Nc2cccc(SC)c2)c1	6%
CC(C)C(c1nnnn1C1CCCCC1)N1CCN(c2ncccn2)CC1 (stereo not drawn)	8%
O=C(Cn1cnc2c(cnn2-c2ccccc2)c1=O)NCCc1ccccc1	6%
Cc1ccc(-c2nnn(CC(=O)Nc3ccccc3-c3ccccc3)n2)c(-n2cnnn2)c1	4%
O=C(Nc1ccccn1)c1ccc2ccccc2n1	-12%
O=c1cc(-c2ccccc2)nc(N2CCCCC2)[nH]1	?
Cc1cccc(-c2nc(CS(=O)CC(=O)NC3CCCC3)c(C)o2)c1 (stereo not drawn)	-2%
O=C(CN(Cc1ccccc1F)C(=O)Cn1nnc(-c2cccs2)n1)NCC1CCCO1 (stereo not drawn)	3%
Clc1ccccc1-c1nnc2sc(-c3ccc(Br)o3)nn12	6%
CC(=O)N(CCN(C(C)=O)c1ccccc1)c1ccccc1	-3%
COCCn1c(COc2cccc(OC)c2)nnc1SCC(=O)N1CCOCC1	-4%
Cc1nc(SCC(=O)N2CCCc3ccccc32)c2oc3ccccc3c2n1	6%
COc1ccccc1NC(=O)N1CCN(c2cccc(C(F)(F)F)c2)CC1	?
O=C(CCn1c(=O)[nH]c2ccccc2c1=O)Nc1ccccc1	-12%
COc1ccc(C2(O)CCN(C(=O)Cc3cccnc3)CC2)cc1	-6%
Cc1ccc(OCC(O)CN2CCN(CC(O)COc3ccc(C)cc3)CC2)cc1 (stereo not drawn)	-5%
CC(=O)c1c(C)nn(CC(O)Cn2c3c(c4cc(C)ccc42)CCCC3=O)c1C (stereo not drawn)	25µM*
CC(C)OP(=O)(c1ccc(N(C)C)cc1)C(O)c1c(Cl)cccc1Cl (stereo not drawn)	5%
Cc1ccc(NC(=O)NC(=O)CSc2nnnn2C)c(C)c1	5%
O=S(=O)(c1cccs1)n1cnc2ccccc21	-6%
Brc1ccc2c(c1)c1nc3ccccc3nc1n2CCN1CCOCC1	-23%
c1ccc2c(c1)Cn1nc(Cc3nc4c(s3)CCCC4)nc1-2	-10%
COC(=O)c1ccc(NC(=O)c2cnc3scc(C)n3c2=O)cc1	-4%
CS(=O)(=O)N(CC(=O)N1CCOCC1)Cc1ccc(Cl)cc1	6%
COc1ccc2c(C)nc(Nc3nc(C)cc(=O)[nH]3)nc2c1	-3%
COc1cc2c(cc1OC)CN(C(=O)Cc1ccc(OC)c(S(=O)(=O)N3CCOCC3)c1)CC2	-1%
Oc1ccc2c(c1)OCO2	-1%
COC(=O)C(C)C1Sc2ccccc2NC1=O (stereo not drawn)	3%
(continued)
SMILES	HSD17B inh
CCOC(=O)N1CCN(C(=O)c2oc3ccc(S(=O)(=O)N4CC(C)CC(C)C4)cc3c2C)CC1 (stereo not drawn)	-7%
Cn1c(=O)c2c(nc(SCCCC#N)n2Cc2ccccc2F)n(C)c1=O	-7%
COC(=O)C(C(=O)Nc1ccccc1C)C1CCCC1 (stereo not drawn)	4%
Cc1ccc(C)c(N2CCN(S(=O)(=O)c3ccc4c(c3)OCCO4)CC2)c1	5%
CC(C)NC(=O)c1cc(-c2ccco2)on1	-12%
CCOC(=O)CN(C(=O)CSc1nnc(CNc2ccc(C)cc2C)o1)c1ccccc1	-4%
CCN(CC)S(=O)(=O)c1ccc(C(=O)Oc2ccc3c(c2)OCO3)cc1	1%
CC1=C(C(=O)Nc2ccccc2)C(c2ccc3c(c2)OCO3)C2=C(CCCC2=O)N1 (stereo not drawn)	?
O=C(NC1CCCCCC1)c1nc2ncccn2n1	7%
O=C(CSc1nnc2scc(-c3ccc(Cl)cc3)n12)NCc1ccco1	5%
COC(=O)[C@@]1(Cc2ccc(F)cc2)[C@@H]2C(=CC(=O)[C@H]2CC(=O)C(=O)N(C)C)CN1C(=O)c1ccccc1	7%
O=C(Nc1cc(C(F)(F)F)ccc1N1CCOCC1)c1c(F)c(F)c(F)c(F)c1F	-2%
CC1(C)CC(=O)CC(=Nc2ccc3[nH]c(=O)[nH]c3c2)C1	-6%
O=C(CCn1cccc1)Nc1cccc(F)c1	8%
CC(C)=NO[C@@H](C)c1cc(-c2c(C)cc(C)cc2C)no1	2%[11.4 µM]
O=C(c1ccccn1)N(Cc1cc2ccccc2[nH]c1=O)C1CCCCC1	?
O=C(Nc1ccccc1)C1CC2CCCC(C1)C2=O (stereo not drawn)	9%
CC(=O)Nc1ccc(S(=O)(=O)N2CCN(C3CCCCCCC3)CC2)cc1	7%
COC(=O)c1ccccc1NC(=O)COC(=O)c1ccco1	1%
CC(C)CC1(C(=O)NCC2CC2)C=CCN1C(=O)c1ccccc1 (stereo not drawn)	-15%
CCN(CC)C(=O)CSc1ncnc2c1cnn2Cc1ccccc1	-27%
O/N=C1\CC/C(=N\O)c2nn(-c3ccc(Cl)cc3Cl)nc21	9%
CCN1CCN(c2ncnc3sc(C(=O)Nc4ccccc4F)c(C)c23)CC1	-11%
COC(=O)c1ccccc1NC(=O)COC(C)=O	?
Cc1ccc(S(=O)(=O)N2CCSC2c2ccco2)cc1 (stereo not drawn)	-5%
O=C(N1CCOCC1)N1CCN(Cc2ccccc2)CC1	0%
N/C(=N/O)c1nc(N2CCCCC2)nc(N2CCCCC2)n1	0%
COc1ccccc1CNc1ncncc1-c1ccccc1C(F)(F)F	7%
COc1ccccc1CCn1c(=O)c(-c2ccc(F)cc2)nc2cncnc21	-7%
COc1ccc2[nH]c(=O)c(CN(C(=O)c3ccco3)C3CCCCC3)cc2c1	32µM*
CN(C)C(=O)c1ccc(-c2ccc3ncnc(NCc4ccccc4)c3c2)cc1	20µM*
CCOC(=O)C1=C(C)NC(=S)NC1c1cccc(O)c1 (stereo not drawn)	-40%
CC1CC(C)CN(C(=O)CSc2nnc(-c3ccc(Cl)cc3)o2)C1 (stereo not drawn)	4%
CCN(C(=O)c1ccnc(C(C)(C)C)c1)c1ccccc1	5%
COc1ccccc1Nc1ncnc2c1oc1ccccc12	?
O=C(Nc1ccc(N2CCN(C(=O)c3ccco3)CC2)cc1)c1cccc(F)c1	-3%
CCOC(=O)C(C)n1nc(C)c2sc3ccccc3c2c1=O (stereo not drawn)	20µM*
O=C(CSc1nnc(-c2cccnc2)o1)Nc1ccccn1	-1%
CCn1c(=O)cc(SCC(=O)Nc2ccc3c(c2)OCO3)c2ccccc21	?
CSc1nnc(Cn2c(=O)sc3ccccc32)n1CCc1ccccc1	-21%
Cc1cccc(CCNC(=O)CCc2nc(-c3ccccc3F)no2)c1	2%
Cc1noc(NS(=O)(=O)c2ccc(NC(=O)Nc3ccc(Cl)c(Cl)c3)cc2)c1C	9%
COc1cccc(-c2noc(N)c2C#N)c1	2%
CCOC(=O)C1CCN(c2c(NCCCN(C)C3CCCCC3)c(=O)c2=O)CC1	4%
Cc1csc(NC(=O)c2cnccn2)n1	5%
COc1ccccc1CNC(=O)Cn1cnc2ccccc2c1=O	5%
O=C(O)c1cccc(N=Nc2c(S(=O)(=O)O)ccc3c2C(=O)c2ccccc2C3=O)c1O	?
COc1ccc(-c2nc(-c3ccncc3)no2)cc1OC	-10%
N=c1sc2ccccc2n1CCS (tested in a mixture with another compound)	-14%[11.4 µM]
CC(c1ccccc1)n1cc(C(=O)NCC2COc3ccccc3O2)nn1 (stereo not drawn)	1%
Other records:
SMILES	HSD17B inh
Cc1cccc(N2CCN(C(=O)c3ccc(N4CCCC4=O)cc3)CC2C)c1 (stereo not drawn)	1%
O=C(CSc1nc(O)c(Cc2ccccc2)c(=O)[nH]1)Nc1ccccc1	-14%
CC(=O)OC1CC2C(C)(C)C(O)CC[C@@]2(C)C2CC[C@@]3(C)C(c4ccoc4)OC(=O)C4OC43[C@]12C (stereo partly drawn)	-3%
CN(C)C(=O)c1ccc(-c2nc(Nc3ccccc3)c3ccccc3n2)cc1	1%
Cc1ccnc(SCCn2c(N(C)Cc3ccccc3)nc3c2c(=O)n(C)c(=O)n3C)n1	32µM*
CCn1c(CC(=O)Nc2ccccc2)nnc1SCC(=O)Nc1ccccc1C(=O)OC	5%
Cc1cc(N2CCCCCC2)nc(-c2ccccc2O)n1	32µM*
COC(=O)NC(/C(C(=O)OC)=C(\C)NCc1ccccc1)c1cccc(C)c1 (stereo not drawn)	0%[11.4 µM]
CCOC(=O)N1CCN(C(=O)CCCn2c(=O)[nH]c3ccccc3c2=O)CC1	20µM*
O=C(CCn1nc(-c2ccccc2)ccc1=O)N1CCOCC1	-4%

Part of the list above in order of molecular weight, ascending:
SMILES	HSD17B inh
N=c1sc2ccccc2n1CCS (tested in a mixture with another compound)	-14%[11.4 µM]
COc1cccc(-c2noc(N)c2C#N)c1	2%
Cc1csc(NC(=O)c2cnccn2)n1	5%
Cc1cc(N2CCCCCC2)nc(-c2ccccc2O)n1	32µM*
O=C(CCn1nc(-c2ccccc2)ccc1=O)N1CCOCC1	-4%
CCOC(=O)C(C)n1nc(C)c2sc3ccccc3c2c1=O (stereo not drawn)	20µM*
COc1ccccc1CNC(=O)Cn1cnc2ccccc2c1=O	5%
Cc1cccc(CCNC(=O)CCc2nc(-c3ccccc3F)no2)c1	2%
CC(c1ccccc1)n1cc(C(=O)NCC2COc3ccccc3O2)nn1 (stereo not drawn)	1%
O=C(CSc1nc(O)c(Cc2ccccc2)c(=O)[nH]1)Nc1ccccc1	-14%
CN(C)C(=O)c1ccc(-c2nc(Nc3ccccc3)c3ccccc3n2)cc1	1%
Cc1cccc(N2CCN(C(=O)c3ccc(N4CCCC4=O)cc3)CC2C)c1 (stereo not drawn)	1%
COC(=O)NC(/C(C(=O)OC)=C(\C)NCc1ccccc1)c1cccc(C)c1 (stereo not drawn)	0%[11.4 µM]
CSc1nnc(Cn2c(=O)sc3ccccc32)n1CCc1ccccc1	-21%
CCOC(=O)N1CCN(C(=O)CCCn2c(=O)[nH]c3ccccc3c2=O)CC1	20µM*
CCOC(=O)C1CCN(c2c(NCCCN(C)C3CCCCC3)c(=O)c2=O)CC1	4%
Cc1ccnc(SCCn2c(N(C)Cc3ccccc3)nc3c2c(=O)n(C)c(=O)n3C)n1	32µM*
CCn1c(CC(=O)Nc2ccccc2)nnc1SCC(=O)Nc1ccccc1C(=O)OC	5%
Cc1noc(NS(=O)(=O)c2ccc(NC(=O)Nc3ccc(Cl)c(Cl)c3)cc2)c1C	9%
CC(=O)OC1CC2C(C)(C)C(O)CC[C@@]2(C)C2CC[C@@]3(C)C(c4ccoc4)OC(=O)C4OC43[C@]12C (stereo partly drawn)	-3%

(continued)
SMILES	HSD17B inh
CCNc1cc(O)ccc1C	4%
O=C(c1ccc(Cl)cc1Cl)N1CCC(c2nc3c(nnn3Cc3ccco3)c(=O)[nH]2)CC1	?
COc1ccc(Cn2nc(C)cc2C)cc1OC	5%
COc1cc(NC(=O)c2cc(-c3ccco3)on2)c(OC)cc1Cl	?
COc1ccccc1N1CCN(C(=O)CCc2ccc(S(=O)(=O)NCC(C)C)cc2)CC1	-6%
Cc1nc2ccc(S(=O)(=O)NC(C(=O)Nc3nccs3)C(C)C)cc2s1 (stereo not drawn)	0%
Cc1ccccc1NC(=O)c1c(O)c2cccc3c2n(c1=O)CC3	-5%
CN1CCN(c2nc3c(c(=O)[nH]c(=O)n3C)n2CC(N)=O)CC1	-4%
O=C(CSCCO)Nc1cc(C(F)(F)F)ccc1Cl	-2%
COc1cccc(C2CC(=O)Nc3c2c(=O)n(C)c(=O)n3C)c1OC (stereo not drawn)	1%
CC(C)CO/N=C1/C[C@@H](O)[C@@H](O)[C@@H]2[C@@H]3C(=O)N(C4CCCCC4)C(=O)[C@H]3CC[C@@H]12	-2%[11.4 µM]
Cn1nnnc1SCc1ccc(F)cc1	3%
COc1ccc2c3c1O[C@H]1C[C@H](O)C=C[C@@]31CCN(C)C2	14%
